Screening data deposited in PubChem by National Center for Advancing Translational Sciences (NCATS).
Rango dissoc inh – qHTS Assay for Inhibitors of RanGTP induced Rango (Ran-regulated importin-beta cargo) - Importin beta complex dissociation; Biochemical FRET Rango-importin beta, RanGTP-induced dissociation; Potency, µM (highest dose often 46.1 µM), inactives show at the highest dose activity change, negative = inhibition; hit rate 0.071% among 340,000; AID 540253, 2011; active means falling FRET ratio curve, often poorly fitted, with flat reads before Ran was added; inconclusive means other falling curves, or compound fluorescence or quenching; inactive means flat or rising ratio curve;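 note: potency is the fitted concentration of half-maximal effect; % of control where 0% means no effect; nearly all actives have a fitted effect of over 45% in size; -100% = wells without RanGTP and RCC1; the record marks most hits as doubtful in a second field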
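Quantitative HTS using a FRET biosensor: 0.1 uM Rango, 0.25 uM importin beta, 0.6 uM Ran, 2 mM GTP, 0.2 uM RCC1 final, PBS with DTT, Tween-20 and BSA. Post-read taken 45 min after Ran addition.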
miR-21 FLuc – qHTS Assay for Modulators of miRNAs and/orActivators of miR-21. 340,000 tested, under 10 active. HeLa miR-21 FLuc reporter, luciferase, 48 h. AID 2288, 2010. Potency, µM (top dose mostly 38.3 µM), for inactives: at the top dose reporter change, positive = more light; active = well fitted rising curve with a large enough effect; inconclusive = small, poorly fitted or top-dose-only effect; inactive = no such curve, though single readings can be large or run the other way;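 note: % of control where 0% means no effect; miR-21 action dims this reporter so a rising signal means less miR-21 action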
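Compounds were titrated across several concentrations (up to approximately 40 uM) and incubated 48 hours with HeLa miR-21-FLuc reporter cells (miR-21 target sequence downstream of FLuc, endogenous miR-21). Readout was firefly luciferase luminescence after lytic detection reagent.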
Rango-impB inh – qHTS Assay for Inhibitors of Rango (Ran-regulated importin-beta cargo) - Importin beta complex formation | Importin subunit beta-1 (Homo sapiens), Q14974 | Rango CFP/YFP FRET sensor + importin beta, 45 min | Potency, µM (titrated, usually from 92.2 µM), without a hit: top-dose inhibition of complex formation | hit rate 0.031% among 340,000; active = rising FRET ratio curve, often small or poorly fitted; inconclusive = mostly compound fluorescence or quenching in the first reads; inactive = flat curves in all reads;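 note: potency is the fitted concentration of half-maximal effect; 0% = DMSO wells and 100% = buffer wells lacking importin beta; nearly all actives have a fitted effect of over 15% in size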
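FRET biosensor (snurportin 1 IBB flanked by EYFP and cerulean), 50 nM, with compound 5 min, then 0.125 microM importin beta in PBS, 1 mM DTT, 0.02% Tween-20, 0.1% BSA. CFP/YFP ratio read after 45 min at room temperature; pre-read flags interference.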
GLA inh pH 4.5 – qHTS Assay for Inhibitors of Human alpha-Galactosidase at pH 4.5; AID 1467, 2008; 230,000 tested, under 10 active; purified enzyme, 4-MU-alpha-Gal fluorescence, pH 4.5; activity change, negative = inhibition, % at 105 µM; Alpha-galactosidase A (Homo sapiens), P06280; inconclusive = small, poorly fitted or top-dose-only inhibition, or a rising curve; inactive = flat fitted curve, though single readings scatter; no compound was filed as active;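 note: 0% = full activity with enzyme and -100% = basal without enzyme; dose as in the result columns while the protocol names 77 µM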
Target sequence (P06280 whole entry, looked up): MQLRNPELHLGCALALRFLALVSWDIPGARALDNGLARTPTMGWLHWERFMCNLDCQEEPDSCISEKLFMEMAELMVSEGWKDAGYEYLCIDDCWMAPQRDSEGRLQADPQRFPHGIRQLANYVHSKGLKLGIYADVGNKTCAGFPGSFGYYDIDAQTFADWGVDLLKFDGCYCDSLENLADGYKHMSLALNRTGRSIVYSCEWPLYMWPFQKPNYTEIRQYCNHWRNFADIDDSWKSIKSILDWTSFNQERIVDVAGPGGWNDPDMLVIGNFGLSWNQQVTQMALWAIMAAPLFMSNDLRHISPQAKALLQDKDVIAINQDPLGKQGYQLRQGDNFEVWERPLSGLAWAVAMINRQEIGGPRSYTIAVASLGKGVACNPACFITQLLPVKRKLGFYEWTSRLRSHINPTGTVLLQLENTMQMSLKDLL
Active calls of the source: *; u = inconclusive; x = not tested or not shown; & = joins results of further samples. The list is partial, so the mix of outcomes need not match the whole.

GLA inh pH 4.5 | Rango-impB inh | miR-21 FLuc | Rango dissoc inh | SMILES
-6 | 0.2% | -3% | -11% | CCCc1nc(SCC(=O)N2CCC(Cc3ccccc3)CC2)c2c(=O)n(C)c(=O)n(C)c2n1
-10 | -1.1% | -9% | -10% | O=C(C1=C[C@H](C2CC2)C[C@H](OCCCCO)O1)N1CCN(Cc2ccc3c(c2)OCO3)CC1
4 | -1.5% | 0% | 0% | O=S(=O)(Nc1ccccc1)c1ccc(F)cc1
5 | -1.1% | -2% | 13% | CCc1ccc(NC(=O)C(C)Nc2ccc(S(=O)(=O)NC(C)=O)cc2)cc1 (stereo unspecified)
x | -4.7% | 0% | 2% | COc1ccc(C2OC(=O)Cc3cc(OC)c(OC)cc32)cc1 (stereo unspecified)
-6 | -1.7% | 1% | 0% | CCC(C)c1ccc(OCCn2cc(/C=N/NC(=O)CSc3nnc(C)s3)c3ccccc32)cc1 (stereo unspecified)
x | 1.0% | x | 3% | Cc1cccc(N(Cc2ccccc2)C(=O)C2CCN(C(=O)c3ccccc3C)CC2)c1
x | 1.0% | -2% | 5% | O=C(O)c1ccccc1C(=O)N1CCN(Cc2ccc3c(c2)OCO3)CC1
-10 | -0.8% | 8% | 14% | O=S(=O)(NC1CCN(Cc2ccccc2)CC1)c1ccc(Cl)cc1
x | 4.0% | -2% | -11% | C=CCOc1cccc(/C=N/NC(=O)CC(=O)NC2CCCCC2)c1
x | -3.4% | -9% | -18% | C=C1C2(C(=O)Nc3ccc(SC(F)F)cc3)CCC(C2)C1(C)C (stereo unspecified)
x | -2.8% | 24% | 1% | COC(=O)[C@@H]1Cc2c([nH]c3ccccc23)C(C)N1C(=O)c1ccccc1 (stereo partly specified)
x | 3.8% | 0% | -4% | CC(C)[C@H](N)C(=O)NC[C@H]1CC[C@H](C(=O)N[C@@H](Cc2ccccc2)C(=O)O)CC1
-6 | -2.3% | 0% | -1% | CCOC(=O)c1c(-c2cccs2)csc1NC(=O)C(C)(C)C
-2 | 1.9% | 0% | -9% | O=C(CSc1nc2c(sc3ccccc32)c(=O)n1Cc1ccccc1)NCC1CCCO1 (stereo unspecified)
x | -3.2% | x | 24% | Cc1cc(C)c2nc(N(CCCN(C)C)C(=O)C3=COCCO3)sc2c1
-15 | 1.5% | -2% | -8% | CCOC(=O)C1=NN(c2cccc(Cl)c2)C2=NC(C)=C(C(=O)OC)C(c3cccs3)N12 (stereo unspecified)
6 | 5.4% | -1% | -7% | CCO[C@@H]1OC(C(N)=O)=C[C@H](C2CCCCC2)[C@H]1CCCO
-6 | 0.3% | -3% | 26% | COc1cccc(CNC(=O)C2CCN(S(=O)(=O)c3ccc4c(c3)CCC(=O)N4)CC2)c1
-1 | -3.9% | -4% | 0% | CCO[C@H]1OC(C(=O)N2CCOCC2)=C[C@@H](c2ccc(C(F)(F)F)cc2)[C@@H]1CCCO
x | 2.4% | x | 17% | COc1ccc2nc(SCC(=O)NC3CCCCC3C)[nH]c2c1 (stereo unspecified)
x | 0.2% | 0% | -7% | CCCn1c(=O)n(CC(=O)NCC2CCCO2)c(=O)c2c3c(sc21)COC(C)(C)C3 (stereo unspecified)
x | -3.6% | 6% | -9% | CCN(c1ccc(C)cc1C)S(=O)(=O)c1nnc(NC(=O)C(C)C)s1
3 | -1.5% | 0% | 3% | O=C(NCCc1nc2ccccc2[nH]1)/C(=C/c1ccc(F)cc1)NC(=O)c1ccco1

Of the compounds above, 2 have a Cl atom.
GLA inh pH 4.5 | Rango-impB inh | miR-21 FLuc | Rango dissoc inh | SMILES
-10 | -0.8% | 8% | 14% | O=S(=O)(NC1CCN(Cc2ccccc2)CC1)c1ccc(Cl)cc1
-15 | 1.5% | -2% | -8% | CCOC(=O)C1=NN(c2cccc(Cl)c2)C2=NC(C)=C(C(=O)OC)C(c3cccs3)N12 (stereo unspecified)

Other results
GLA inh pH 4.5 | Rango-impB inh | miR-21 FLuc | Rango dissoc inh | SMILES
x | 0.6% | -1%&-18% | 12% | CCCN(CCC)CCNC(=O)c1cc2c(-c3ccc(Cl)cc3)nn(C)c2s1
-3 | 4.1% | -3% | 0% | O=S(=O)(c1ccc(NC2CCCc3ccccc32)nc1)N1CCOCC1 (stereo unspecified)
x | 1.9% | 1% | 1% | O=C(O)c1ccccc1-c1nnc2c(Cl)cc(C(F)(F)F)cn12
x | -1.8% | x | u | COc1cc(C2c3cc4c(cc3OC(NNC(N)=O)C2C)OCO4)cc(OC)c1OC (stereo unspecified)
0 | 0.0% | 9% | 9% | Cc1noc(C)c1COc1ccc(C(=O)OCC(=O)N2c3ccccc3NC(=O)C2(C)C)cc1
x | -0.2% | -3% | -3% | CCOC(=O)Cc1csc(NC(=O)CSC2=NCCS2)n1
x | -1.9% | x | 6% | O=C(COC(=O)/C=C/c1ccccc1[N+](=O)[O-])Nc1ccc(S(=O)(=O)N2CCOCC2)cc1
1 | 6.6% | -27% | -3% | CCc1ccccc1NC(=S)NNC(=O)c1ccccc1Cl
-6 | 1.3% | -12% | -1% | O=C(COc1ccccc1)NNc1nc2c(F)cccc2s1
-13 | -1.0% | 28% | -6% | COc1ccc(N(C(=O)/C=C/C(=O)Nc2cc(C)on2)C(C(=O)NC2CCCC2)c2ccccc2C)cc1 (stereo unspecified)
x | 4.6% | x | -18% | Cc1ccc(NC(=O)c2ccc3c(=O)n4c(nc3c2)CCCCC4)nc1
x | 0.3% | 2% | 1% | CCOc1ncccc1C(=O)NCC(c1ccccc1)N(C)C (stereo unspecified)
5 | -2.8% | -2% | -9% | CCC(=O)c1ccc(OCC(=O)Nc2ccc3nc(C)sc3c2)cc1
x | u | x | u | c1cn2c(NC3CCCCC3)c(-c3ccc(SC4CCCCC4)cc3)nc2cn1
-9 | 1.1% | -49% | 2% | C/C(=N/NC(=O)c1ccccn1)c1c[nH]c2ccccc12
-1 | 0.4% | -5% | 4% | COc1cccc(NC(=O)C(Sc2nc3ccccc3c(=O)n2CC(C)C)c2ccccc2)c1 (stereo unspecified)
-2 | 2.3% | 6% | 1% | CC(C)Cc1nc(N2CCN(C(=O)C(C)C)CC2)c(C#N)c2c1CCC2
1 | 4.9% | 10% | 4% | O=C(Cn1ncc2c3ccccc3n(Cc3ccccc3)c2c1=O)N1CCN(c2ncccn2)CC1
x | -0.9% | 0% | -5% | O=C(NCc1ccco1)C1CCCN(S(=O)(=O)c2cc(Cl)ccc2Cl)C1 (stereo unspecified)
2 | -3.5% | 0% | u | CC(C)N(Cc1cnn(C)c1)Cc1nc(Cc2ccccc2Cl)no1
-6 | 3.0% | -5% | 39% | c1ccc2c(c1)CC(N1CCCCC1)c1ccccc1N2 (stereo unspecified)
x | -0.3% | x | -22% | Cc1cc(C)n2nc(C(=O)OC(C)C(=O)c3ccccc3)nc2n1 (stereo unspecified)
-2 | 4.7% | -3% | 13% | COc1ccc(S(=O)(=O)Cc2ccc(C(=O)N3CCN(C(=O)c4ccco4)CC3)o2)cc1
-2 | -6.0% | 0% | 1% | COc1ccccc1C(c1nnnn1CS(=O)(=O)c1ccc(C)cc1)N1CCSCC1 (stereo unspecified)
-12 | -1.1% | u | 5% | O=C(OCn1ncc(Br)c(Br)c1=O)c1ccc(F)cc1
x | u | -52% | -26% | CCCN1CCC(=O)N([C@H](CSc2ccccc2)c2ccccc2)CC1
-15 | -2.7% | 9% | 22% | COc1ccc(C(=O)CC(Nc2ccc([N+](=O)[O-])cc2)c2ccc(OC)cc2)cc1 (stereo unspecified)
5 | 0.8% | -11% | -5% | O=C(CCCOc1ccc(Cl)cc1Cl)NN1CCOCC1
3 | -0.7% | -2% | 2% | Cc1cc(C)n(C(=O)c2ccc(S(=O)(=O)NCC3CCCO3)cc2)n1 (stereo unspecified)
x | -0.1% | -3% | -4% | CCOc1cc(C(=O)OC(C)C(=O)Nc2ccc(NC(C)=O)cc2)ccc1OCC(=O)N1CCCCC1 (stereo unspecified)
0 | -0.7% | -8% | 0% | CCCNC(=S)N1CCN(Cc2ccc3c(c2)OCO3)CC1
5 | -0.4% | -2% | 2% | Cc1ccc(-c2nc3sc4c(N)ncnc4c3c3c2CCCC3)cc1
5 | 0.5% | -2% | 1% | O=c1oc2ccccc2c(N2CCOCC2)c1[N+](=O)[O-]
8 | 2.9% | -8% | 13% | Cc1ccc(S(=O)(=O)NNC(=O)c2cc3cc4ccccc4nc3s2)cc1
x | -2.3% | -1% | -7% | O=C(Nc1ccon1)c1ccc(Cl)c(S(=O)(=O)N2CCCCC2)c1
3 | 0.9% | -10% | -1% | Cc1cccc(-n2cnc(C(=O)N/N=C/c3ccccc3)c2)n1

Exported with each value named: 4 of the compounds above.
CCCn1c(=O)n(CC(=O)NCC2CCCO2)c(=O)c2c3c(sc21)COC(C)(C)C3 (stereo unspecified)
  GLA inh pH 4.5: x
  Rango-impB inh: 0.2%
  miR-21 FLuc: 0%
  Rango dissoc inh: -7%

CCN(c1ccc(C)cc1C)S(=O)(=O)c1nnc(NC(=O)C(C)C)s1
  GLA inh pH 4.5: x
  Rango-impB inh: -3.6%
  miR-21 FLuc: 6%
  Rango dissoc inh: -9%

O=C(NCCc1nc2ccccc2[nH]1)/C(=C/c1ccc(F)cc1)NC(=O)c1ccco1
  GLA inh pH 4.5: 3
  Rango-impB inh: -1.5%
  miR-21 FLuc: 0%
  Rango dissoc inh: 3%

CCCN(CCC)CCNC(=O)c1cc2c(-c3ccc(Cl)cc3)nn(C)c2s1
  GLA inh pH 4.5: x
  Rango-impB inh: 0.6%
  miR-21 FLuc: -1%&-18%
  Rango dissoc inh: 12%

3 structures already listed, sorted by count of non-hydrogen atoms, falling.
GLA inh pH 4.5 | Rango-impB inh | miR-21 FLuc | Rango dissoc inh | SMILES
x | u | -52% | -26% | CCCN1CCC(=O)N([C@H](CSc2ccccc2)c2ccccc2)CC1
3 | -0.7% | -2% | 2% | Cc1cc(C)n(C(=O)c2ccc(S(=O)(=O)NCC3CCCO3)cc2)n1 (stereo unspecified)
0 | -0.7% | -8% | 0% | CCCNC(=S)N1CCN(Cc2ccc3c(c2)OCO3)CC1

Later entries:
GLA inh pH 4.5 | Rango-impB inh | miR-21 FLuc | Rango dissoc inh | SMILES
x | 5.4% | x | -18% | COc1ccc([N+](=O)[O-])cc1NC(=O)C(C)OC(=O)CSC(C)C(=O)Nc1cc(C)on1 (stereo unspecified)
x | 1.8% | 0% | 1% | C=CCNC(=O)CN(Cc1ccccc1)S(=O)(=O)c1ccc(C)cc1
x | -0.5% | x | 4% | CCN(CC(=O)Nc1c(F)cccc1F)C(=O)c1ccc2ncsc2c1
-15 | 2.0% | 20% | 2% | CCOc1ccc(NC(=O)CC2C(=O)N(c3ccc(OC)cc3)C(=S)N2Cc2ccccn2)cc1 (stereo unspecified)
-8 | -2.7% | 1% | -15% | C/C(=N\NC(=O)c1cccc([N+](=O)[O-])c1)c1ccncc1
x | -2.7% | 1% | -9% | Cc1cc(OC(C)C(=O)NCC2CCC(C(=O)O)CC2)c2c(C)cc(=O)oc2c1 (stereo unspecified)
3 | 4.6% | 16% | 14% | COc1ccc(/C=N/NC(=O)c2[nH]nc3c2CCc2ccccc2-3)cc1OC
-1 | -1.7% | 3% | 1% | COc1ccc(NS(=O)(=O)c2cccc(NC(=O)CCS(=O)(=O)c3ccccc3)c2)cc1
-3 | 0.6% | -3% | -10% | O=C(Nc1ccccc1)N1CCNCC1
x | 1.1% | 0% | -9% | CC(C)[C@H](NC(=O)C1CCN(S(=O)(=O)c2ccccc2)CC1)C(=O)NCc1ccco1
-11 | -0.8% | -36% | -7% | Cc1cc(NC(=O)c2cc(-c3ccc(O)cc3)on2)no1
x | 0.3% | 8% | -27% | COc1cccc(CN2CC(C(=O)N3CCN(c4ccc(Cl)cc4)CC3)CCC2=O)c1 (stereo unspecified)
-3 | 8.8% | -7% | -9% | Cc1cc(OC(C)C)c2c(-c3ccccc3)cc(=O)oc2c1
